Mtb H37Rv – Confirmatory growth inhibition assay against Mycobacterium tuberculosis H37Rv, potency (AID 1949); most inactive calls were filed without a number and no value below 0 was filed; inhibition, % at 10 µg/mL; hits with a dose series show IC50 in µg/mL; actives 1.6% (n = 100,000);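 active = confirmed in a dose series; inconclusive = about 50% or more but not retested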;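 also: bacteria grown 7 days with compound before Alamar blue readout; 0% = untreated bacteria and 100% = reference antibiotic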
Numbers without * were called inactive; i = inactive; ? = inconclusive.

A first look:
SMILES | Mtb H37Rv
Cc1ccc(S(=O)(=O)Nc2ccc3c(c2)nc2n3CCN(Cc3ccccc3)C2)cc1 | i
COc1ccc(CCNc2nc(C)cc(C)n2)cc1OC | i
CC(=O)Nc1ccccc1C(=O)N1CCN(C)CC1 | i
O=C(Nc1ccc(Cl)c(Cl)c1)N1CCN(c2ccc(F)cc2)CC1 | 0.9%
CCOC(=O)c1cn(-c2ccccc2)nc1-c1ccc([N+](=O)[O-])cc1 | i
CC(=O)Nc1ccc(S(=O)(=O)Nc2ccc(Cc3ccncc3)cc2)cc1 | i
COc1ccc(Cc2nnc(SCC(=O)Nc3ccc(Cl)c(Br)c3)n2C)cc1 | i

All compounds of this part, previewed entries included:
SMILES | Mtb H37Rv
Cc1ccc(S(=O)(=O)Nc2ccc3c(c2)nc2n3CCN(Cc3ccccc3)C2)cc1 | i
COc1ccc(CCNc2nc(C)cc(C)n2)cc1OC | i
CC(=O)Nc1ccccc1C(=O)N1CCN(C)CC1 | i
O=C(Nc1ccc(Cl)c(Cl)c1)N1CCN(c2ccc(F)cc2)CC1 | 0.9%
CCOC(=O)c1cn(-c2ccccc2)nc1-c1ccc([N+](=O)[O-])cc1 | i
CC(=O)Nc1ccc(S(=O)(=O)Nc2ccc(Cc3ccncc3)cc2)cc1 | i
COc1ccc(Cc2nnc(SCC(=O)Nc3ccc(Cl)c(Br)c3)n2C)cc1 | i
CCn1c(Cc2ccccc2)nnc1SCc1ccc(C#N)cc1 | i
N#Cc1c(C(F)(F)F)cc(C23CC4CC(CC(C4)C2)C3)nc1SCC(N)=O | i
O=C(N/N=C/c1ccccn1)c1ccc(CN2CCOCC2)cc1 | i
COc1ccc(NC(=S)Nc2cccc3ccccc23)c(C)c1 | i
O=C(c1ccc(C(=O)N2CCN(c3ccccc3)CC2)s1)N1CCN(c2ccccc2)CC1 | i
O=C(Nc1nnc(-c2ccncc2)s1)c1cc2c(s1)CCCC2 | i
CSc1ccccc1NC(=O)c1cc2ncc(Br)cn2n1 | i
COC(=O)c1ccc(Cl)c(NC(=O)CN(c2ccc(OC)c(OC)c2)S(C)(=O)=O)c1 | i
CC(C)c1cccc(OCCCOc2ncnc3ccccc23)c1 | 4.4%
CC(C)c1ccc(OCc2nnc(SCC(=O)Nc3ccccc3Cl)n2C)cc1 | 37.8%
CCN(CC)C(=O)CN1C(=O)c2cccc3cccc1c23 | i
O=c1[nH]c(/C=C\c2ccc(-c3cc(Cl)ccc3Cl)o2)c([N+](=O)[O-])c(=O)[nH]1 | i
Cc1cc(Cl)ccc1NS(=O)(=O)c1cccs1 | i
Cc1ccc2oc(-c3ccccc3C)cc(=O)c2c1 | 46.0%
Cc1ccc(S(=O)(=O)N(CC(=O)NCCO)Cc2c(F)cccc2Cl)cc1 | i
CCN1CCN(C(=S)Nc2ccc(Cl)cc2)CC1 | i
CC(C)(C)n1cnc2cc(NCc3cccs3)ccc21 | 39.0%
COC(=O)c1c(NC(=O)c2cc(Cl)ccc2OC)sc(C(=O)N(C)C)c1C | i
O=C(Nc1ccc(-c2nc3ncccc3o2)cc1)c1cccc(F)c1 | i
COc1ccccc1CCNC(=O)c1ccc(COc2ccccc2Cl)cc1 | i
CCN(CC)C(=O)C1CCCN(C2CC(=O)N(c3ccc(Br)cc3)C2=O)C1 (stereo not drawn) | i
CCOc1nc(NCCC2=CCCCC2)nc(OCC)n1 | 0.5%
O=C(CC1Nc2ccccc2NC1=O)Nc1ccc2c(c1)OCO2 (stereo not drawn) | i
COc1ccccc1-c1cc(C(F)(F)F)nc(N2CCCCC2)n1 | 2.2%
CCCn1c(Oc2ccc(C3CCCCC3)cc2)nc2c1c(=O)n(C)c(=O)n2C | i
O=c1cc(NCc2ccccc2)c2ccccc2o1 | i
Cc1cc(C)nc(NC(N)=NCc2cccnc2)n1 | i
Cc1ccccc1NC(=O)CN(CCc1ccccc1)S(=O)(=O)c1cc(Cl)ccc1Cl | i
CCCc1cc(=O)[nH]c(Nc2ccc(C(=O)OC)cc2)n1 | i
N=c1ccccn1CC(O)COc1ccccc1 (stereo not drawn) | i
CCCCSc1ccc(NC(=S)Nc2ccccc2)cc1 | 42.1%
COc1ccc(/C=C/C(=O)c2ccc(O)cc2)cc1COc1ccc(F)cc1 | i
COc1ccc(C(=O)NCc2ccc3[nH]c4c(c3c2)CCCC4)cc1OC | i
CC(C)N(Cc1nc(-c2ccccc2)no1)C(=O)c1ccc(C(C)(C)C)cc1 | 5.8%
O=C(Nc1ccc(F)cc1)C1CCN(C(=O)c2ccc([N+](=O)[O-])cc2)CC1 | i
O=C(c1cnn2c(C(F)F)cc(-c3ccccc3)nc12)N1CCc2ccccc21 | i
Cc1cccc(NC(=O)c2ccc(OCC(=O)NC3CCCCC3)cc2)c1C | i
O=C(Oc1ccc2c(=O)c(Oc3ccc(-c4ccccc4)cc3)coc2c1)C1CCCO1 (stereo not drawn) | i
O=C(Nc1cccnc1)c1ccc(Br)s1 | i
CCOc1cc(CNCCc2ccc(S(N)(=O)=O)cc2)ccc1OCc1ccccc1 | 0.2%
NS(=O)(=O)c1ccc(CNC(=S)Nc2ccc(Br)cc2Cl)cc1 | i
Cc1ccc(OCC(=O)NC(=S)Nc2ccc(-c3nc4cc(C)ccc4o3)c(O)c2)cc1 | 2.7%
COc1cc(N2CCN(S(=O)(=O)c3ccc(Cl)cc3)CC2)ccc1[N+](=O)[O-] | i
O=C(Nc1ccccc1-c1ccccc1)c1ccc(Br)s1 | i
COc1cc(C=O)c(Br)cc1OCc1ccccc1C#N | i
CCOc1ccc2ccccc2c1CO | i
Cc1cc(Br)ccc1OCCOCCNCCN | i
O=C1CC(c2cccc(F)c2)c2c(ccc3ccccc23)N1 (stereo not drawn) | 0.1%
Cc1ccccc1-c1nc2scc(-c3ccc(Br)cc3)c2c(=O)o1 | i
Cc1ccc(C(=O)N2c3ccccc3CC2C)o1 (stereo not drawn) | 3.1%
COc1cc(Cl)c(C)cc1NC(=O)c1ccc([N+](=O)[O-])cc1 | 4.4%
Cc1cc(OCCCn2ccnc2)ccc1C(C)C | 4.44µg/mL*
C=CCc1cc(OC)ccc1OCCCCN1CCN(C)CC1 | i

(list continues)
SMILES | Mtb H37Rv
CSc1ccccc1Nc1ncnc(N)c1[N+](=O)[O-] | i
CCC(CC)C(=O)N1CCN(c2cccc(C(F)(F)F)c2)CC1 | i
COc1ccc(C2(C(=O)NCCc3ccccc3)CCCCC2)cc1OC | i
Cn1c(NC(=O)c2ccccc2NC(=O)C(C)(C)C)nc2ccccc21 | ?
CCN(CC)/C(=N\S(=O)(=O)c1cccc([N+](=O)[O-])c1)c1ccccc1 | i
CC(C)(C)N(Cc1ccccc1)C(=O)CC(c1ccccc1)c1ccccc1 | 4.5%
COc1ccc(OC)c(NS(=O)(=O)c2ccc(-c3ccccc3)cc2)c1 | i
COC(=O)c1sc2ncn(C(C)C(=O)OC)c(=O)c2c1C (stereo not drawn) | i
Cc1cccc(OCC(O)Cn2c(=N)n(CCN3CCOCC3)c3ccccc32)c1 (stereo not drawn) | 1.4%
Cc1ccc(C(=O)CCC(=O)OCC(=O)Nc2ccc(Cl)cc2C)cc1 | i
COc1cccc(-c2ccc(-c3noc(-c4ccccc4Cl)n3)c(OC)n2)c1 | i
Cc1ccc(C(C)C)c(OCc2nnc(NC(=O)c3ccc(Cl)cc3Cl)s2)c1 | i
COc1ccc(-c2cccc(C(=O)N(C)C)c2)cc1 | 0.1%
O=C1CC(N2CCC(O)CC2)C(=O)N1c1ccc(Cl)cc1 (stereo not drawn) | i
CCOc1ccccc1N(CC(=O)Nc1ccc(Br)cc1)S(C)(=O)=O | i
C=CCn1c(SCC(=O)Nc2cccc(C(C)=O)c2)nc2sc3c(c2c1=O)CCC3 | i
O=C(NC(=S)Nc1ccccc1N1CCCCC1)c1ccco1 | i
O=C(Cn1c(-c2cscn2)nc2ccccc21)Nc1ccc(Cl)cc1 | 15.7%
CC1CCc2c(sc3ncnc(SCC(=O)Nc4cc(Cl)ccc4Cl)c23)C1 (stereo not drawn) | i
COc1ccc(OC)c(NC(=O)CSc2nc(-c3ccccc3)nc3c2COC(C)(C)C3)c1 | i

Of the compounds above, six contain two or more sulfur atoms:
SMILES | Mtb H37Rv
O=C(Nc1nnc(-c2ccncc2)s1)c1cc2c(s1)CCCC2 | i
Cc1cc(Cl)ccc1NS(=O)(=O)c1cccs1 | i
CCCCSc1ccc(NC(=S)Nc2ccccc2)cc1 | 42.1%
NS(=O)(=O)c1ccc(CNC(=S)Nc2ccc(Br)cc2Cl)cc1 | i
C=CCn1c(SCC(=O)Nc2cccc(C(C)=O)c2)nc2sc3c(c2c1=O)CCC3 | i
CC1CCc2c(sc3ncnc(SCC(=O)Nc4cc(Cl)ccc4Cl)c23)C1 (stereo not drawn) | i

(continued)
SMILES | Mtb H37Rv
CCOC(=O)C1C(c2cccs2)NC(=O)N(C)C1(O)C(F)(F)F (stereo not drawn) | i
O=C(NCc1ccccc1)C(c1ccccc1)c1ccccc1 | i
CCOC(=O)c1ccc(NC(=S)Nc2cc(C(=O)OC)cc(C(=O)OC)c2)cc1 | 29.4%
O=C(O)c1cccnc1SC1CC(=O)N(c2ccc(SC(F)F)cc2)C1=O (stereo not drawn) | i
CCN(C(=O)CSc1nnc(C)s1)c1ccccc1 | i
Cc1nnc(SCC(=O)c2ccc3c(c2)OCO3)s1 | 2.7%
CCOc1ccc(NC(=O)CSC2=NCCS2)cc1 | 9.8%
CCC(=O)Nc1ccc([N+](=O)[O-])cc1OC(=O)CC | 5.5%
COc1ccc(-n2nc3nc[nH]c(=O)c3n2)cc1 | i
Cc1nc(C)c(-c2csc(Nc3ccc(C(=O)O)cc3)n2)s1 | 34.9%
CCC(Sc1nnc2c(n1)[nH]c1ccccc12)C(=O)Nc1nnc(C(C)C)s1 (stereo not drawn) | i
COc1ccc(NS(=O)(=O)c2ccc(NC(=O)COc3cc(C)cc(C)c3)cc2)cc1 | i
COC(=O)c1ccccc1NC(=O)CN(Cc1ccccc1)S(=O)(=O)c1ccc(OC)cc1 | i
O=C(Nc1cccnc1)c1csc2ccccc12 | i
Cc1cc(Br)c2c(c1)C(O)(CC(=O)c1ccccn1)C(=O)N2 (stereo not drawn) | i
O=C(CSc1ccc(Cl)cc1)NNC(=O)c1cccnc1 | 1.0%
CCC(C)(C)c1ccc(OC(=O)CN2C(=O)C3C4CCC(C4)C3C2=O)cc1 (stereo not drawn) | 2.4%
CCC(Sc1ncnc2c1sc1nc(N3CCOCC3)c3c(c12)CCCC3)C(=O)OC (stereo not drawn) | 30.4%
CCC(C)n1[nH]c(=O)c2c1NC(=O)CSC2c1ccc(OC(C)C)cc1 (stereo not drawn) | i
CN(C)CCCNC(=S)Nc1ccccc1F | i
COc1ccc(NC(=O)CN(c2ccc(F)cc2)S(=O)(=O)c2ccc(OC)c(OC)c2)c(OC)c1 | i
COC(=O)C1=C(C)N=C2SCCC(=O)N2C1c1ccccc1 (stereo not drawn) | i
O=C(NC(=S)Nc1ccc(I)cc1Cl)c1cccc(F)c1 | i
Cc1ccc(SCCC(=O)Nc2ccccc2C(=O)NC(C)C)cc1 | i
Cc1cc(Cl)ccc1OCC(=O)Nc1ccccc1[N+](=O)[O-] | 5.8%
COc1ccc(C2(C(=O)Nc3ccc(C(C)=O)cc3)CCCC2)cc1OC | 3.8%
COc1ccc(CCCc2nnc(SCC(=O)Nc3nc(C)cs3)n2C)c(C)c1 | i
CC(C)CNC(=O)C1CC(=O)N(c2ccc(OCC(=O)Nc3cccc(Cl)c3)cc2)C1 (stereo not drawn) | i
O=C(NCc1ccc2c(c1)OCO2)c1cncc(Br)c1 | i
CCN(CC)C(=O)C1=C(C)NC(=O)NC1c1c(F)cccc1Cl (stereo not drawn) | 0.0%
COC(=O)c1c(-c2ccc(F)cc2)csc1NC(=O)c1sc2ccccc2c1Cl | 1.6%
CCOC(=O)CSc1nc(-c2cccc(C)c2)nc2c1CCCC2 | i
O=C(CSCc1cccc2ccccc12)Nc1c[nH]c(=O)[nH]c1=O | i
CC1CCN(C2CCN(S(=O)(=O)c3ccc(F)cc3)CC2)CC1 | i
Cc1cc(Br)cc(C)c1OCC(=O)Nc1ccc(S(=O)(=O)NC(C)(C)C)cc1 | 0.5%
O=C(COc1ccc(Br)cc1)NCc1cccnc1 | i
O=C(Nc1ccccc1)C1CCCN(S(=O)(=O)c2ccccc2)C1 (stereo not drawn) | i
CCOc1cc(C(=O)N2CCC3(CC2)OCCO3)cc(OCC)c1OCC | i
CC(=O)Nc1ccc(S(=O)(=O)NCC(C)NS(=O)(=O)c2ccc(NC(C)=O)cc2)cc1 (stereo not drawn) | i
Cc1cc(C)cc(NC(=O)CN(c2ccc(Br)cc2)S(C)(=O)=O)c1 | i
Cc1ccc(CSCCNC(=O)c2ccc(CN3CCc4ccccc4C3)cc2)cc1 | i
Cc1sc(NC(=O)C2CCC2)nc1-c1ccc(F)cc1 | 0.5%
O=C(c1ccc(-n2nc(C(F)(F)F)c3c2CCCC3)cc1)N1CCOCC1 | i
C=CCn1c(SCC(=O)c2c[nH]c3ccccc23)nnc1-c1cccc(Br)c1 | i
O=C(Oc1ccc(F)cc1)N1CCOCC1 | 3.7%
O=C(O)CSc1nc2cc(F)c(F)cc2[nH]1 | i
COc1ccc(C)cc1NS(=O)(=O)Cc1ccccc1 | i
COC(=O)c1cc(NC(=O)c2cnccn2)cc(C(=O)OC)c1 | i
Cc1ccc2cccc(S(=O)(=O)N3CCN(c4cccc(Cl)c4)CC3)c2n1 | 7.1%
Cc1ccc(C)c(C(=O)Nc2ccc(Br)cc2)c1 | i
COc1ccc(C)cc1S(=O)(=O)NC1CCCCCC1 | i
CCCCC(=O)Nc1ccc(C(=O)NNC(=O)c2sc3ccccc3c2Cl)cc1 | i
COc1cc(C(=O)NC(=S)Nc2ccc(S(=O)(=O)Nc3ccccc3)cc2)cc(OC)c1OC | i
CCOC(=O)C1=CN(Cc2ccc(OC)cc2)C=C(C(=O)OCC)C1c1ccccc1OCC | 1.1%
Cc1ccc(OCC(O)CN(Cc2ccccc2)c2ccccc2)cc1 (stereo not drawn) | 19.6%
CCc1ccc(NS(=O)(=O)c2ccc(NC(C)=O)cc2)cc1 | i

These rows are one share of the data. The share of hits here may be higher or lower than overall.
